HSV augment – increases HSV replication in cells | HSV replication augmentation in cells, fold increase | maximum fold increase | actives 0.005% (n = 220,000) | AID 1956;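 active = peak rise of 1.5-fold or more in the series; tested in PC3 cells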;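 note: first round at 10 µM; read as green reporter fluorescence; hits show the peak of a series up to 25 µM; 1 = signal of infected wells without compound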
PKD1 inh – blocks activity of human protein kinase D1; Q15139; PKD1 kinase fluorescence polarization assay; inhibition, %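 (about 10 µM by stock and volumes)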; actives 0.056% (n = 200,000); AID 797;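 active = inhibition of 50% or more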;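 note: controls were vehicle for no effect and a reference inhibitor for full effect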
GALR2 agonist – activates the human galanin receptor 2; activation, %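 (tested at 5 µM)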; actives 0.48% (n = 140,000); AID 803; GALR2-expressing cells, agonist activation read-out;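 active = above mean plus 3 SD of all compounds, about 5% in these data, not always enough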;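 note: 0% = vehicle buffer wells and 100% = reference agonist at full effect; tested in CHO reporter cells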
Target sequence (O43603 whole entry, looked up): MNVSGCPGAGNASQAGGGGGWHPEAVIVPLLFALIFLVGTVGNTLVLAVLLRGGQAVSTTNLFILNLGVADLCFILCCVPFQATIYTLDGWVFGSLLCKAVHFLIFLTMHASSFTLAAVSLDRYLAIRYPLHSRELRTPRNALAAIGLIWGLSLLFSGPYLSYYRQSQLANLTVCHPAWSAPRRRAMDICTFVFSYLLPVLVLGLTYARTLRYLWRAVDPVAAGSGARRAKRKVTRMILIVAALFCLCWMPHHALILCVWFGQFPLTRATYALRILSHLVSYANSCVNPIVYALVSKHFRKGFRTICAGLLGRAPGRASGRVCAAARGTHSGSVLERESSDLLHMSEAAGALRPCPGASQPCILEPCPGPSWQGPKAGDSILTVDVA
INS promoter inh – TRM-6 insulin promoter activity inhibition | inhibition, % at 2 µM | actives 0.9% (n = 130,000) | AID 1273 | TRM-6 cells (human fetal islet line), insulin promoter-eGFP reporter, imaging; reporter expression induced with tamoxifen;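 active = inhibition above the mean plus 3 SD, with well images judged a real hit on visual review, cut at about 60% in these data, passing the limit was not always enough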
RGS16-Gao – regulators of human RGS16-Galphao interaction | O15492+P09471 | bead-based flow cytometry RGS16-Galphao binding, fluorescence; actives lie on both sides | binding response (% of control), % at 10 µM | actives 0.38% (n = 220,000) | AID 1441;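 active = below 25% or above 175%, edge rows of some plates excepted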;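 note: Galphao activated by GDP with aluminum fluoride before binding; 100% = wells without compound and 0% = beads without RGS; some results beyond the cut were filed as inactive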
Target sequence (O15492 whole entry, looked up): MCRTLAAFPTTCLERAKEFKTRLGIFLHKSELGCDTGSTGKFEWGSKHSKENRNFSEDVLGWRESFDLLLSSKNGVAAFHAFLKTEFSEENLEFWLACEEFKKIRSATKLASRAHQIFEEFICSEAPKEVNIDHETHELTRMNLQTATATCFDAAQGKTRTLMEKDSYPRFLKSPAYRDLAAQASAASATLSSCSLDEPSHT
Target sequence (P09471 whole entry, looked up): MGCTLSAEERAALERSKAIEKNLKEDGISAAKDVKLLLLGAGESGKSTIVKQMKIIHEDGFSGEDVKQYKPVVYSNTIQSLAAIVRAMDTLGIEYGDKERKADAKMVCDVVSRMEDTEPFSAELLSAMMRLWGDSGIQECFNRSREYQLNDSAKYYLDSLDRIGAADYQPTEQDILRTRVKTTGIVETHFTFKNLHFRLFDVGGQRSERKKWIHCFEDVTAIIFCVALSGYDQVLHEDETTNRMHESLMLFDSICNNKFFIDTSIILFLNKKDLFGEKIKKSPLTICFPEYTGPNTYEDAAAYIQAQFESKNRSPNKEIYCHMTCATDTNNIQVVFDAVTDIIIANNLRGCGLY
INS promoter inh cell count – further read-out of INS promoter inh, marked with its call; normalized cell count, %; measured here: cell count, toxicity; reference of the scale not given here;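 cells exposed to compound for 48 h; stained nuclei by imaging scaled within each plate; lower means fewer cells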
HSV augment primary fold – also measured in HSV augment; calls as there; fold increase; compound at 10 µM; measured here: primary screen fold increase 10 uM; tested in PC3 cells;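 GFP signal in the first replicate; 1 = infected wells without compound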
Starred values were filed as active, the others as inactive; i = inactive; / = not tested or not shown.

Values in the order – HSV augment, HSV augment primary fold, PKD1 inh, GALR2 agonist, INS promoter inh, INS promoter inh cell count, RGS16-Gao
CCN(CC)c1ccc(C2Nc3cccc4cccc(c34)N2)c(O)c1
 : i, 0.98, 7, -3.0, -71, 87, /
COCCNC(=O)Cc1ccc(Br)cc1
 : i, 1.1, -4, -1.4, /, /, 93
NCCCCC(NC(=O)C1CCCN1C(=O)C1CSSCC(N)C(=O)NC(Cc2ccc(O)cc2)C(=O)NC(Cc2ccccc2)C(=O)NC(CCC(N)=O)C(=O)NC(CC(N)=O)C(=O)N1)C(=O)NCC(N)=O (stereo unspecified)
 : /, /, 8, -0.1, -73, 105, 103
CCCCOc1ccc(-c2nnn(CC(=O)NCc3ccco3)n2)cc1
 : i, 0.68, 5, 0.1, 31, 46, 114
FC(F)(F)c1cccc(NC(=S)NNC(=S)Nc2ccc(Cl)cc2)c1
 : i, 0.86, /, /, /, /, 104
O=C(CSc1nnnn1C1CCCC1)N1CCCc2ccccc21
 : i, 0.94, 11, -2.0, -24, 116, 101
CSCC[C@H](NC(=O)OC(C)(C)C)c1nnc(SCC(N)=O)o1
 : i, 0.92, 2, -1.3, -29, 117, 97
O=c1[nH]n(-c2ccc([N+](=O)[O-])cc2)c(=O)c2ccccc12
 : i, 0.99, 0, /, /, /, 113
C/C(=N\NC(=O)C(=O)Nc1cccc(C(F)(F)F)c1)c1ccc(Cl)s1
 : i, 0.85, -7, -0.6, 51, 120, 100
CCOC(=O)C1(Cc2ccc(OC)cc2)CCN(C(=O)CC2CCC(=O)N2)CC1 (stereo unspecified)
 : i, 1.1, -6, /, /, /, 96
CC(C)(C)NC(=O)c1ccc(C(=O)NC(C)(C)C)cc1
 : i, 1.2, /, /, /, /, 100
CCn1cc(-c2n[nH]c(=S)n2-c2ccc(C)cc2Br)c(=O)c2ccc(C)nc21
 : i, 1, /, /, /, /, 105
CCN(c1ccccc1)c1nc2nonc2nc1NCCO
 : i, 1.2, /, /, /, /, 80
CCn1nc(C)c(/C=N/NC(=O)Cn2cncn2)c1C
 : i, 1, /, /, /, /, 102
O=C(Nc1ccc2c(c1)OCO2)c1cc2ncc(Br)cn2n1
 : i, 0.92, 2, 0.7, 67, 77, 93
Cc1ccc(-c2nnc(-c3ccccc3)o2)cc1Br
 : i, 0.97, 3, -2.5, 21, 87, /
O=[N+]([O-])c1cccc(-c2cn(-c3ccccc3)c(=S)[nH]2)c1
 : i, 0.85, 0, /, -21, 155, 114
Cc1nn(Cc2cccc(C(=O)O)c2)c(C)c1[N+](=O)[O-]
 : i, 1.1, /, /, /, /, 101
O=C(N/N=C1\CCCc2oc(C(=O)O)cc21)c1ccccc1
 : i, 1.1, 2, /, 14, 73, 117
CCC(NC(=O)c1ccccc1NC(=O)c1ccccc1)C(=O)NNC(=O)CSc1nc2ccccc2o1 (stereo unspecified)
 : i, 1, 3, -0.4, -48, 119, 82

Single entries from the results shown:
`COCCNC(=O)Cc1ccc(Br)cc1` in PKD1 inh is entered as -4
`O=c1[nH]n(-c2ccc([N+](=O)[O-])cc2)c(=O)c2ccccc12` in RGS16-Gao is entered as 113
`O=C(N/N=C1\CCCc2oc(C(=O)O)cc21)c1ccccc1` in INS promoter inh is entered as 14

(list continues)
Values in the order – HSV augment, HSV augment primary fold, PKD1 inh, GALR2 agonist, INS promoter inh, INS promoter inh cell count, RGS16-Gao
COC(=O)C1=C(C)Nc2nc(-c3ccccc3)nn2C1c1ccc(C)o1 (stereo unspecified)
 : i, 0.8, -11, -2.8, /, /, 100
Cc1nn(-c2ncc(C(F)(F)F)cc2Cl)c(=O)n1-c1ccc(F)cc1
 : i, 0.97, 1, /, /, /, 98
CCOC(=O)/C(C#N)=C/c1ccc(N2CCN(Cc3ccccc3)CC2)cc1
 : i, 1.1, -3, -1.3, /, /, 89
O=C(CCc1nnc(Cc2cccc(C(F)(F)F)c2)o1)NC1CC1
 : i, 0.97, 6, /, /, /, 114
COc1ccc(NS(=O)(=O)c2cccc(C(=O)NNC(=O)NCCCl)c2)cc1
 : i, 0.89, -5, /, /, /, 104
Cc1c(C(=O)NCCSCc2ccc(F)cc2)cnn1-c1ccc(Cl)cc1
 : i, 1.1, /, /, /, /, 106
O=C(NCc1ccco1)C(NS(=O)(=O)c1cccc2nsnc12)c1ccccc1 (stereo unspecified)
 : i, 1.1, -12, -3.2, /, /, 98
COc1ccc(CC(NC(C)=O)C(=O)NC2CCN(c3ncccc3[N+](=O)[O-])CC2)cc1 (stereo unspecified)
 : i, 0.91, -2, /, /, /, 99
CC(C)OCCCn1c(=NC(=O)c2cccs2)c(C#N)cc2c(=O)n3ccccc3nc21
 : i, 1, /, /, /, /, 95
Cc1cccc(NC(=O)CSc2nnc(CSc3nc(C)cc(C)n3)o2)c1
 : i, 0.86, -7, -1.5, 12, 133, 101
O=S(=O)(Nc1nc2ccccc2nc1Cl)c1ccc(Br)cc1
 : i, 1.2, 0, /, /, /, 101
CC1SC(C)C(=O)N(CC(=O)Nc2ccc3c(c2)OCO3)C1=O (stereo unspecified)
 : i, 0.98, 2, -1.4, 11, 95, 100
Cc1cc(=O)oc2cc(OCc3ccc(C(=O)N4CCN(c5ccccc5)CC4)cc3)ccc12
 : i, 0.95, 2, -0.3, -14, 160, 100
CCn1c(-c2cc(-c3cc(C)ccc3C)nc3ccccc23)n[nH]c1=S
 : i, 0.96, -4, -1.3, -73, 54, 61
COc1ccc(OCCC(=O)NCCN2CCOCC2)cc1
 : i, 1, -7, /, 12, 107, 103
O=C(NCc1cccnc1)c1cc(-c2ccco2)on1
 : i, 0.94, -8, -3.2, /, /, 101
C(=N\Nc1nc(N2CCCCCC2)nc(N2CCCCCC2)n1)/c1ccccc1
 : i, 0.94, 4, /, 36, 118, 103
CC(C)(C)c1cc(NC(=O)CCl)n(-c2ccccc2)n1
 : i, 0.96, /, /, /, /, 97
Cc1ccc(C(=O)N(CN2CCCC2=O)c2ccc(F)cc2)cc1C
 : i, 0.93, 11, -0.7, /, /, 98
CC(=O)c1ccc(N(C(=O)Cn2nnc3ccccc32)C(C(=O)NCc2ccccc2)c2ccccn2)cc1 (stereo unspecified)
 : i, 0.99, -6, -1.4, -100, 96, 101
O=[N+]([O-])c1ccc(C=Nc2ccc(Cl)c([N+](=O)[O-])c2)s1
 : i, 0.77, -4, /, /, /, 97
COc1ccccc1-c1noc(CCC(=O)Nc2cccc(C(F)(F)F)c2)n1
 : i, 0.93, -2, -1.4, 37, 106, 98
Cc1ccc2nc(N3C(=O)CNC3=S)sc2c1
 : i, 1.1, /, /, /, /, 89
Cc1cc(C)cc(OCc2ccc(C(=O)NN)o2)c1
 : i, 1.1, /, /, /, /, 92
CC(Cc1cccs1)NC(=S)Nc1ccc(F)cc1 (stereo unspecified)
 : i, 0.9, -11, 0.6, -84, 134, 104
COc1ccc(C(=O)NCc2nnc(SCC(=O)N3CCc4ccccc43)n2C2CCCCC2)cc1
 : /, /, -9, -1.2, /, /, 109
Cc1csc(NC(=O)CNS(=O)(=O)c2cccs2)n1
 : i, 0.89, 13, -3.2, 33, 121, 93
Cc1ccc(C)c2[nH]c(=O)c(CCNC(=O)c3ccc4c(c3)OCO4)cc12
 : i, 1, -8, -0.3, 47, 64, 102
COCCCNC(=O)c1ccc(CS(=O)(=O)c2ccc(OC)cc2)o1
 : i, 0.68, 0, -1.9, -30, 86, 101
CCC(=O)N1CCc2cc(Br)cc(S(=O)(=O)CCC(=O)NCc3ccco3)c21
 : i, 1, -3, 0.6, -3, 145, 100
O=C(CNc1ccc2ccccc2c1)NNC1=NCCC1
 : i, 0.94, -2, -2.9, 25, 99, 103
CCCCn1c(=O)c(C(=O)N/N=C/c2ccc(F)cc2)c(O)c2ccccc21
 : i, 0.94, -2, /, 29, 116, 105
Cc1ccc(S(=O)(=O)c2cc3ccccc3oc2=O)cc1
 : i, 0.8, -6, /, 29, 89, 104
COc1ccc(NC(=O)CSc2nc(-c3ccc(C)cc3)cc(C(F)(F)F)c2C#N)cc1
 : i, 0.99, -8, -3.3, /, /, 96
COc1cc(NC(=O)C2CCCN(S(=O)(=O)c3cnc[nH]3)C2)cc(OC)c1 (stereo unspecified)
 : i, 0.95, -5, -1.8, /, /, 75
O=C(Nc1ccccc1F)C1C2C=CC3(O2)C1C(=O)N(c1cccnc1)C3C(=O)NC1CCCCC1 (stereo unspecified)
 : i, 0.97, -9, -0.7, /, /, 101
Cn1c(Sc2nc3ccccc3n2C)nc2ccccc21
 : i, 0.77, -7, -2.0, 33, 86, 111
CC(C)Sc1nc2ccsc2c(=O)[nH]1
 : i, 1, -2, /, /, /, 104
O=C(O)C1CCCCC1C(=O)Nc1ccc2c(c1)CCC2 (stereo unspecified)
 : i, 0.84, -4, -4.3, -425, 60, 102
COc1ccc(/C=N/Nc2ccccn2)cc1O
 : i, 0.84, /, /, /, /, 98
O=C(O)CCSc1nc(C(F)(F)F)cc(=O)n1-c1ccccc1
 : i, 1, -4, -3.6, 33, 135, 89
CCOC(=O)Cc1csc(NC(=O)CSc2nc3sc(C(=O)O)c(C)c3c(=O)[nH]2)n1
 : i, 1, 0, -1.3, /, /, 92
Cc1ccc(S(=O)(=O)Nc2nc3ccccc3s2)cc1[N+](=O)[O-]
 : i, 1, 7, /, /, /, 97
O=C(CSc1nnc(-c2cccnc2)o1)c1cc2ccccc2oc1=O
 : i, 1.1, -5, -1.1, 3, 56, 99
COc1ccc(C2NC(c3ccc(OC)cc3OC)C(C)C(=O)C2C)c(OC)c1 (stereo unspecified)
 : i, 0.84, -2, /, /, /, 96
COCCN(C(=S)Nc1ccccc1OC)C1CCN(C(C)=O)CC1
 : i, 0.82, 4, -1.3, 6, 81, 108
Cc1cc(-c2ccccc2)nc2cc(C(=O)NCc3ccco3)nn12
 : i, 1, -3, /, /, /, 94
O=C(CC1C(=O)NCCN1C(=O)Nc1ccccc1)Nc1ccc2c(c1)OCCO2 (stereo unspecified)
 : i, 1.1, -10, -1.2, 39, 118, 101
CCN(CC)CCSc1nnc(Nc2ccccc2)n1-c1ccccc1
 : i, 0.74, -7, /, /, /, 104
COc1ccc(CCNC(=O)Cn2nc([N+](=O)[O-])c(Br)c2C)cc1OC
 : i, 0.83, -9, -1.0, 0, 52, 147
O=C(O)c1cc2nc(-c3ccccc3)cc(-c3ccccc3)n2n1
 : i, 0.95, -5, /, 56, 80, 88
Cc1ccc2c(c1)NC(=O)c1cc([N+](=O)[O-])ccc1O2
 : i, 1, -5, /, -35, 168, 101
O=C(O)CCOc1ccc2c(c1)OCCO2
 : i, 1, -10, -1.3, /, /, 102
O=C(Nc1ncccn1)c1ccc(C(F)(F)F)cc1
 : i, 0.92, -8, -0.4, -31, 130, 77
CC1(/[N+]([O-])=C\c2ccccc2F)CCCCC1=O (stereo unspecified)
 : i, 0.76, /, /, /, /, 95
O=C(NCc1nc2ccccc2[nH]1)C1=C[C@@H](c2ccc(Br)cc2)C[C@@H](OCCCCO)O1
 : i, 0.88, -7, /, /, /, 99
OCCN1CCN(CC(O)COc2ccc3ccccc3c2)CC1 (stereo unspecified)
 : i, 1, -1, 0.6, -16, 81, 103
Cc1c(C)n(CC(O)CN2CCCCC2)c2ccccc12 (stereo unspecified)
 : i, 0.99, -4, -1.1, -25, 216, 107
CNC(=O)Cn1c(=O)n(C)c2ccccc21
 : i, 0.98, -8, -1.3, 18, 79, 106
COc1ccc(OCCOC(=O)c2cccc(-n3cnnn3)c2)cc1
 : i, 0.76, -6, -1.2, 47, 125, 4.0*

Profiles, quoted from the list. Order of values: HSV augment | HSV augment primary fold | PKD1 inh | GALR2 agonist | INS promoter inh | INS promoter inh cell count | RGS16-Gao
O=C(NCc1nc2ccccc2[nH]1)C1=C[C@@H](c2ccc(Br)cc2)C[C@@H](OCCCCO)O1 is listed as i | 0.88 | -7 | / | / | / | 99
O=C(O)CCSc1nc(C(F)(F)F)cc(=O)n1-c1ccccc1 is listed as i | 1 | -4 | -3.6 | 33 | 135 | 89

Screening data (PubChem)
